Source: PubChem
GIV-Gai inh = blocks GIV peptide binding to rat Galpha-i3; P08753; Galpha-i3/FITC-GIV peptide fluorescence polarization, 90 min; hits give low values; scaled: aluminum fluoride 0%, vehicle 100%; percent of control (FP), % (no concentration beside the values); hit rate 0.42% among 210,000; AID 1224905;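 active means replicate mean at 85% of control or lower, very high polarization wells dropped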;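 further: wells of about 15 µL received 100 nL stock; the first replicate is given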
Target sequence (P08753 whole entry, looked up): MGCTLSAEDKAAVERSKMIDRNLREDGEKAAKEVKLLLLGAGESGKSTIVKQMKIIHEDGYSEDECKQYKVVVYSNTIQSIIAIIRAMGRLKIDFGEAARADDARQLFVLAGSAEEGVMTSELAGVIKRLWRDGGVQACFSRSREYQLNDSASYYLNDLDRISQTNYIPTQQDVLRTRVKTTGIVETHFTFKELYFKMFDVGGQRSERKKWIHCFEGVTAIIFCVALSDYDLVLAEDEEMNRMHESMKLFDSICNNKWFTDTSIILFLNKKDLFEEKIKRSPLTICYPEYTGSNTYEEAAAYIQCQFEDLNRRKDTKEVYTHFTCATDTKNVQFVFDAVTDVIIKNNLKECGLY
Sa growth inh = blocks Staphylococcus aureus growth | S. aureus RN4220 growth, OD600, 20 h, 42 °C; hits give low values | hit rate 0.53% among 170,000 | AID 720641 | relative growth, % (no concentration beside the values);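 active means growth at 42 °C up to 50% and 20 or more points under that at 30 °C, or under 10% at both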;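 further: 300 nL library stock went into each well; scaled to the means of positive and negative controls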
HCMV NEC inh = inhibitors of HCMV UL50-UL53 nuclear egress complex interaction | hit rate 0.15% among 190,000 | HTRF UL50-UL53 interaction, normalized percent inhibition | inhibition, % (no concentration beside the values);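 active means both replicates at 50% or more, plus weaker picks with an unusually low signal ratio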;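 further: stock transfer was 100 nL into about 20 µL; 0% = negative control wells and 100% = wells with untagged competitor protein; inactives centre near -12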
Sa growth inh second temp = second read-out of Sa growth inh, no call of its own (marks repeat the call); relative growth, %; measured here: growth at 30 °C;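 optical density after 20 h as mean of two plates; 100% = untreated growth and lower means inhibition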
Numbers without * were called inactive; · = no result given; & = joins results of further samples.

[1] CCOc1cc(CNC(=O)c2ccc3c(c2)NC(=O)C2CCCCN32)cc(OCC)c1OCC (centres undefined)
[2] COc1cccc(CNC(=O)C2CCN(S(=O)(=O)c3ccc4c(c3)CCCN4C(C)=O)CC2)c1
[3] COC(=O)Cc1csc(Nc2ccc(Cl)cc2)n1
[4] Cc1cccc(N=C2NN=C(c3cc(C)n(C)c3C)CS2)c1C
[5] CCOC(=O)Cn1c(-c2cccnc2)nc(-c2ccccc2)c1-c1ccccc1
[6] COc1ccc(CCNC(=O)C(C)n2c(=O)cc(-c3ccccc3)c3c(C)nn(C)c32)cc1OC (centres undefined)
[7] Clc1cc(Cl)cc(-c2ccc(CNCc3ccncc3)o2)c1
[8] CN(C(=O)CSc1ccccn1)c1c2c(nn1C)CCCC2

Assay by compound	1	2	3	4	5	6	7	8
Sa growth inh second temp	87	98	86	95	79	87	·	98
HCMV NEC inh	·	·	-22	-9	0	·	-26	-1
Sa growth inh	90	123	102	74	96	82	·	101
GIV-Gai inh	105	110	·	·	101	100	103	109

[9] COc1ccc(C2=NN(C(=O)c3ccc(Br)cc3)C(c3nc4ccccc4[nH]3)C2)cc1 (centres undefined)
[10] COc1ccc(OC)c(CNCc2c(C(=O)O)n(Cc3ccccc3)c3cc(OC)ccc23)c1
[11] O=C1NC(=O)C(=Cc2ccc(OCc3ccc(C(=O)O)o3)cc2)C(=O)N1
[12] O=C(NCC1CCCO1)c1cc2ccccc2o1 (centres undefined)
[13] O=C(NCc1ccccc1)Nc1ccc(Cl)cc1
[14] CCOCCCN(Cc1ccco1)S(=O)(=O)c1cc2c(cc1Cl)NC(=O)CO2
[15] CCn1c2ccccc2c2cc(NC(=O)CO)ccc21
[16] CC(NC(=O)c1cnn2c(C(F)(F)F)cc(-c3cccs3)nc12)c1ccccc1 (centres undefined)

Assay by compound	9	10	11	12	13	14	15	16
Sa growth inh second temp	·	87	80	102	75	87	85	65
HCMV NEC inh	-2	·	·	-23	4	·	-22	·
Sa growth inh	·	101	76	114	116	102	86	111
GIV-Gai inh	104	100	101	104	110	105	·	100

[17] COc1cccc(C2C(C(=O)OC3CCCC3)=C(C)NC3=C2C(=O)CC(c2cccs2)C3)c1OC (centres undefined)
[18] COc1cc2c(cc1OC)N1C(=O)c3ccccc3C1(O)OC2=O (centres undefined)
[19] C=CCN1CCN(C2CCN(S(=O)(=O)c3cccc4nsnc34)CC2)C(=O)C1=O
[20] CNC(=O)C1=CC(C)(C)NC1(C)C
[21] COc1ccc(C(CC(=O)NCc2ccccn2)N2Cc3ccccc3C2=O)cc1OC (centres undefined)
[22] CCOC(=O)c1sc2nc(SCc3cccc(Cl)c3)n(Cc3cccs3)c(=O)c2c1C
[23] c1ccc(N2CCN(N=C3c4ccccc4-c4ccccc43)CC2)nc1
[24] CCOc1ccc(-c2nc(-c3cccc(NC(=O)Nc4ccccc4)c3)no2)cc1

Assay by compound	17	18	19	20	21	22	23	24
Sa growth inh second temp	·	83	·	97	86	92	66	·
HCMV NEC inh	-8	-44	-108	8	-30	·	-36	-12
Sa growth inh	·	96	·	79	94	87	92	·
GIV-Gai inh	99	97	100	·	102	100	104	108

[25] CC(=O)N/C(=C/c1ccc(Br)cc1)C(=O)O
[26] COc1cccc(/C=N/N=C(N)N)c1O
[27] CC(Sc1nc2c(c(=O)[nH]1)CCCC2)C(=O)Nc1cc(C(F)(F)F)ccc1Cl (centres undefined)
[28] Cc1ccc(NS(=O)(=O)c2ccc3c(c2)NC(=O)C(C)C(=O)N3)cc1F (centres undefined)
[29] CCOc1ccc(NC(=O)COC(=O)CC2CCCCC2)cc1
[30] NNC(=O)c1ccc[nH]1
[31] CC(C)C(=O)Nc1c(-c2nc(-c3ccccc3)cs2)cnn1-c1ccccc1
[32] Cc1ccccc1N(C)C(=O)c1coc(=O)c2ccccc12

Assay by compound	25	26	27	28	29	30	31	32
Sa growth inh second temp	84	98	93	89	90	84	92	81
HCMV NEC inh	-2	-11	-21	0	-30	4	-1	-21&-4
Sa growth inh	108	96	99	90	85	80	88	95
GIV-Gai inh	112	106	104	96	·	105	·	102&102

[33] CCOc1ccccc1NC(=O)c1c(NC(=O)Cc2ccccc2)sc2c1CCCC2
[34] Cn1ncc(C(=O)Sc2ccc(Cl)cc2)c1-n1cccc1
[35] CC1(C)CS(=O)(=O)N(c2cccc(C(=O)N3CCc4ccccc43)c2)C1=O
[36] Cc1cc2c(cc1Cl)N(C(=O)Nc1ccc(Oc3cccnc3C)nc1)CC2
[37] Cn1nnnc1SCCCNCc1ccccc1OCc1ccc(F)cc1
[38] Cc1nc(-c2ccccn2)nc(SCC(=O)c2ccc(F)cc2)c1Cl
[39] COc1ccc2cc3cc(C(=O)N(C)C4CCCCC4)oc3nc2c1
[40] COc1cc(-c2c(C#N)c(N)nc3[nH]c(=S)[nH]c(=O)c23)ccc1O

Assay by compound	33	34	35	36	37	38	39	40
Sa growth inh second temp	84	28	·	·	81	88	84	82
HCMV NEC inh	-55	14	-18	-14	-26	-8	·	2
Sa growth inh	100	48	·	·	104	111	110	93
GIV-Gai inh	105	108	109	95	102	106	104	106

[41] O=C1C2C3C=CC(C2C(=O)N1c1ccccn1)C1C2C(=O)N(c4ccccn4)C(=O)C2C31 (centres undefined)
[42] COc1ccc(-c2[nH]ncc2CN2CCC(c3ccccc3OC)CC2)cc1
[43] CC1=C(C(=O)OC(C)C)C23C(=O)c4ccccc4C2(O1)OC(N)=C3C#N (centres undefined)
[44] O=C(CSc1cccc[n+]1[O-])NC(=O)C1COc2ccccc2O1 (centres undefined)
[45] C=CCC(NCCc1ccccc1)c1ccco1 (centres undefined)
[46] CCOc1ccc(CC(=O)C2C(=O)CC(C)(C)CC2=O)cc1OCC
[47] CSc1nc(C)cc(OCCNC(=O)Nc2ccccc2)n1
[48] CCn1c(SCC(=O)N2CCc3ccccc32)nnc1C(C)C

Assay by compound	41	42	43	44	45	46	47	48
Sa growth inh second temp	·	78	99	100	82	96	97	83
HCMV NEC inh	-5	10	·	15	-44	-10	-7	-5
Sa growth inh	·	100	99	98	89	102	79	88
GIV-Gai inh	97	102	103	·	·	·	105	93

[49] CCOc1ccccc1NC(=O)c1nn(-c2ccc(C)cc2)c(=O)n(C)c1=O
[50] O=c1[nH]nc(Sc2nc(-c3cccs3)ns2)n1-c1ccc(Cl)cc1
[51] CCCc1cc(-c2[nH]ncc2-c2ccc(C(=O)NN)o2)c(O)cc1O
[52] CCn1c(=O)sc2cc(NS(=O)(=O)c3ccc4c(c3)n(C)c(=O)n4C)ccc21
[53] CC1CCN(C(=O)COC(=O)c2nccnc2N)CC1
[54] COc1ccc(N2CCN(C(=O)c3cc4sccc4n3Cc3ccccc3)CC2)cc1
[55] Cc1ccc(CN2CCCn3nc(C(=O)NCCc4ccc(Cl)cc4)cc3C2=O)cc1
[56] Cc1cc(C)c2c(n1)sc1c(=O)n(CC(=O)Nc3ccccc3Br)cnc12

Assay by compound	49	50	51	52	53	54	55	56
Sa growth inh second temp	93	83	76	·	94	90	89	·
HCMV NEC inh	·	-7	-12	5	-56	9	·	-35
Sa growth inh	89	108	116	·	66	93	94	·
GIV-Gai inh	102	100	·	100	·	99	98	99

[57] CCOC(=O)c1c(NC(=O)CSc2ncn(-c3ccccc3)n2)sc2c1CCCC2
[58] Cc1ccc(OC(=O)c2cc(-c3ccc(Cl)cc3)on2)c(C)c1
[59] CC(C)(C)C(=O)Cn1cnc2ccccc2c1=O
[60] COc1ccc(NC(=O)c2nc(S(=O)(=O)Cc3ccc(C)cc3)ncc2Cl)cc1
[61] COc1cccc(CN(CC2CCCO2)S(=O)(=O)c2ccc(S(=O)(=O)N3CCCC3)cc2)c1 (centres undefined)
[62] NC(=O)c1ccccc1NC(=O)CSc1ncc(-c2ccc(Cl)cc2)o1
[63] CCOC(=O)COc1ccccc1/C=C1\N=C(SCC)SC1=O
[64] COc1ccc(-c2cc(C(F)(F)F)nc(NCC3CCCO3)n2)cc1 (centres undefined)

Assay by compound	57	58	59	60	61	62	63	64
Sa growth inh second temp	99	91	97	85	·	·	88	86
HCMV NEC inh	-10	-4	-24	-24	-22	-26	·	·
Sa growth inh	113	106	78	91	·	·	85	99
GIV-Gai inh	101	100	·	100	103	107	92	100

[65] CCc1ccc(NC(=O)CSc2nc3n[nH]c(C)c3c(=N)n2-c2ccccc2C)cc1
[66] CCOC(=O)c1ccc(S(=O)(=O)n2c(=O)oc3ccccc32)cc1
[67] CC1CCN(CC(=O)C(C#N)c2ccccc2)CC1 (centres undefined)
[68] Cc1ccc(C)c(N2CCN(c3cc(C)nc4c(-c5ccc(Cl)cc5)c(C)nn34)CC2)c1
[69] COc1cccc2cc(-c3nc(-c4cccs4)no3)c(=O)oc12
[70] CC(Sc1nnnn1-c1ccccc1)C(=O)O (centres undefined)
[71] Cc1sc2ncnc(Nc3ccc(CN4CCOCC4)cc3)c2c1C
[72] O=c1cc(CO)oc(CN2CCC(Cc3ccccc3)CC2)c1O

Assay by compound	65	66	67	68	69	70	71	72
Sa growth inh second temp	75	93	104	91	91	90	99	90
HCMV NEC inh	·	-3	11	-9	-10	-1	4	-18
Sa growth inh	119	97	90	109	93	77	121	96
GIV-Gai inh	102	·	102	109	100	·	·	·

In another format: entries from further up
No.	SMILES	Sa growth inh second temp	HCMV NEC inh	Sa growth inh	GIV-Gai inh
66	CCOC(=O)c1ccc(S(=O)(=O)n2c(=O)oc3ccccc32)cc1	93	-3	97	·
67	CC1CCN(CC(=O)C(C#N)c2ccccc2)CC1 (centres undefined)	104	11	90	102
68	Cc1ccc(C)c(N2CCN(c3cc(C)nc4c(-c5ccc(Cl)cc5)c(C)nn34)CC2)c1	91	-9	109	109
69	COc1cccc2cc(-c3nc(-c4cccs4)no3)c(=O)oc12	91	-10	93	100
70	CC(Sc1nnnn1-c1ccccc1)C(=O)O (centres undefined)	90	-1	77	·

(list continues)
[73] CC(C)c1nc2ccccc2n1CC(=O)N1N=C(c2ccc(Cl)cc2)CC1c1ccco1 (centres undefined)
[74] COC(=O)CNC(c1ccccc1)c1cc(Br)ccc1NC(=O)c1cc(OC)c(OC)c(OC)c1 (centres undefined)
[75] COc1ccccc1Cn1c(=O)c(C)nc2cccnc21
[76] O=C(CSc1nc2ccccc2n1CC(=O)Nc1ccc(F)cc1F)Nc1ccc(F)cc1
[77] COc1cc(/C=C2\C(=O)N(c3ccc(C(=O)OC(C)C)cc3)N=C2C)ccc1OC(C)=O
[78] COC(=O)c1ccc(CSc2ncccn2)o1
[79] O=c1[nH]c2ccccc2c(N2CCOCC2)c1N1CCOCC1
[80] N#Cc1ccccc1Sc1ccccc1C(=O)NC(Cc1ccccc1)C(N)=O (centres undefined)

Assay by compound	73	74	75	76	77	78	79	80
Sa growth inh second temp	63	84	87	68	·	104	81	91
HCMV NEC inh	-15	-29	-24	·	23	-2	-20	1
Sa growth inh	94	89	118	88	·	108	98	92
GIV-Gai inh	·	102	129	102	98	112	102	·

Filtered by structure, the entries above containing a CF3 group
[16] CC(NC(=O)c1cnn2c(C(F)(F)F)cc(-c3cccs3)nc12)c1ccccc1 (centres undefined)
[27] CC(Sc1nc2c(c(=O)[nH]1)CCCC2)C(=O)Nc1cc(C(F)(F)F)ccc1Cl (centres undefined)
[64] COc1ccc(-c2cc(C(F)(F)F)nc(NCC3CCCO3)n2)cc1 (centres undefined)

Assay by compound	16	27	64
Sa growth inh second temp	65	93	86
HCMV NEC inh	·	-21	·
Sa growth inh	111	99	99
GIV-Gai inh	100	104	100

(more compounds)
[81] CCOC(=O)C1CCN(Cn2nc(Nc3ccc(CC)cc3)sc2=S)CC1
[82] Cc1ccc(N(C)C(=O)Cn2c(=O)oc3cc(S(=O)(=O)N4CC(C)CC(C)C4)ccc32)cc1 (centres undefined)
[83] COC(=O)CSc1nnc(COc2ccc(C(C)C)cc2)o1
[84] Cc1ccc(NC(=O)c2ccc3[nH]c(C)cc(=O)c3c2)cc1
[85] CC1CC(C)CN(c2cc(C(=O)O)c3cc(NC(=O)C4CCC4)ccc3n2)C1 (centres undefined)
[86] Cc1ccoc1C(=O)NCCN
[87] Cc1c(Cc2ccccc2)c(=O)oc2cc(OC(C)C)ccc12
[88] COc1ccc(C2=C/C(=C/c3ccco3)C(=O)O2)cc1

Assay by compound	81	82	83	84	85	86	87	88
Sa growth inh second temp	93	70	120	91	·	80	91	89
HCMV NEC inh	-7	-25	32	-1&9	-64	-4	·	-26
Sa growth inh	71	91	88	88	·	102	86	89
GIV-Gai inh	·	103	106	86&101	117	·	100	109

[89] Cc1ccc(NC(=S)NCCCN2CCN(c3cc(Cl)ccc3C)CC2)c(Cl)c1
[90] CN(c1ccccc1)c1cc(N2CCCCC2)c2nonc2c1[N+](=O)[O-]
[91] Cc1ccc2c(c1)C1CN(C)CCC1N2C(=O)Cn1nnc(-c2ccccc2C)n1 (centres undefined)
[92] Clc1ccc(CN2CCc3nc(N4CCN(c5ccccn5)CC4)ncc3C2)cc1
[93] CCCCC1CCC(c2ccc(C(=O)O)cc2)CC1 (centres undefined)
[94] FC(F)(F)c1cnc(NN2C3CSC2CS3)c(Cl)c1

Assay by compound	89	90	91	92	93	94
Sa growth inh second temp	67	·	88	93	72	98
HCMV NEC inh	·	-41	-12	·	·	2
Sa growth inh	103	·	84	101	73	106
GIV-Gai inh	103	107	·	99	103	100
